E coli growth – inhibitors of Escherichia coli growth | 330,000 tested, 0.21% active | OD600, 23 h; active compounds read low | OD600 absorbance (no concentration beside the values);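 active = OD600 absorbance below the run mean of sample wells minus 3.6 SD, in any replicate, cut at about 0.56 in these data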;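 note: stock transfer was 300 nL into about 60 µL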
AF4-AF9 inh – MLL-AF4/AF9 protein interaction inhibition. AlphaScreen, biotin-AF4 peptide binding to FLAG-AF9. inhibition, % at 10 µM. 350,000 tested, 0.47% active;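 active = every replicate reaching a set inhibition limit, whatever the replicate mean, cut at about 25% in these data; inconclusive = mean inhibition reaches that limit but some replicates miss it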;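 note: 0% = plate neutral control median and 100% = total signal loss; the record names both 10 and 1 µM as test concentration; the first replicate is given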
Target sequence (P42568 whole entry, looked up): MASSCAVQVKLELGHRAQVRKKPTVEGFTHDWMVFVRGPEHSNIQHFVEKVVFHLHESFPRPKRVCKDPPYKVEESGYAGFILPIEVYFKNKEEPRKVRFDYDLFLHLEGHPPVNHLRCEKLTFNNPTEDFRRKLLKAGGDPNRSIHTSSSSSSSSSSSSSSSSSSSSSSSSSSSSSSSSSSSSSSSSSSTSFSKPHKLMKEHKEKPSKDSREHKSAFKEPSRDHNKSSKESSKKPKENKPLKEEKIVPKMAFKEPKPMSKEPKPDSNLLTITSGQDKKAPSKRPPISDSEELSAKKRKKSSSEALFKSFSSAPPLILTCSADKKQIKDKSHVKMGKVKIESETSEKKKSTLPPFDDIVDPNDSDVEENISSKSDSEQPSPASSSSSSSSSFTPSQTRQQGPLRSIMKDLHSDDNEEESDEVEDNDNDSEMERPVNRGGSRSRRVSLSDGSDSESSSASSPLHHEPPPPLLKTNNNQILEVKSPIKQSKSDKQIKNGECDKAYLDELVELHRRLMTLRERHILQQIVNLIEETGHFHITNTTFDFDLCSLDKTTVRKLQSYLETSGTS
RanGTP-Imp inh – inhibitors of RanGTP-importin-beta interaction, primary screen, biochemical, FRET, CFP-Ran, YFP-importin-beta, homogeneous | 300,000 tested, 1.1% active | inhibition, % (concentration not given with the values) | cell-free CFP-Ran/YFP-importin-beta FRET ratio | AID 2216;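 active = most replicates above 15%; inconclusive = exactly half above 15%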;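 note: 0% = DMSO wells and 100% = Ran loaded with GDP instead of GTP; wells of about 40 µL received 100 nL stock; the first replicate is given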
HNF4A DNA FP – change in binding of human HNF4 alpha to DNA. 360,000 tested, 0.3% active. HNF4a-FITC DNA binding, fluorescence polarization, 1 h. activity change, % at 10 µM. AID 1224865; in the data active = activity change above about 30%, passing the limit was not always enough;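 note: controls were the assay level and a saturating level of protein; the project sought stronger binding though the title names inhibitors; some compounds called inactive have numbers as strong as hits; positive values seem to mean higher polarization but the record does not say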
UCH37 inh – human UCH37 deubiquitinating enzyme inhibition | Q9Y5K5 | purified proteasome/UCH37, Ub-AMC cleavage fluorescence | inhibition, % (test concentration not listed) | 330,000 tested, 0.33% active;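 active = mean of two replicates above 20%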;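 note: 0% = compound-free wells with enzyme and 100% = wells lacking proteasome; stock transfer was 100 nL into about 20 µL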
Target sequence (Q9Y5K5 whole entry, looked up): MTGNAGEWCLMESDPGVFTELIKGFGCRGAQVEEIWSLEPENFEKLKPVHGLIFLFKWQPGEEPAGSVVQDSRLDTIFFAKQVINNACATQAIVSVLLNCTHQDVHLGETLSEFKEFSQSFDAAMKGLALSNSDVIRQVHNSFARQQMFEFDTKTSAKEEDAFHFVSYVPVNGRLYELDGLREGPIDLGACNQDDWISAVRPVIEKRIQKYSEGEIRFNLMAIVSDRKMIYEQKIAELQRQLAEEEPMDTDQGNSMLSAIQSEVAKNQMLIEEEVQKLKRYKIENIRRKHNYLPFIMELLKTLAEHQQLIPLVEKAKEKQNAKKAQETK
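assay system = human UCH37 enzyme supplied as purified proteasome complex | amount = proteasome at 0.15 nM in the dispensed enzyme solution | schedule = 30 min compound-proteasome preincubation then 25 min substrate reaction, room temperature | measured by = fluorescence, ex 355 nm, em 460 nm | benchmarks = no-proteasome wells (full inhibition) and compound-free wells (no inhibition)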
FGF22 binding – shifts melting point of recombinant human FGF22 | 340,000 tested, 1.5% active | Q9HCT0 | recombinant FGF22 thermal shift, SYPRO orange fluorescence; percent of sucrose octasulfate shift, DMSO zero | calls only at 9.99 µM;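 active = melting point raised past a set limit in the mean and every replicate; inconclusive = no clear call; three in four hits are not shown here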
Target sequence (Q9HCT0 whole entry, looked up): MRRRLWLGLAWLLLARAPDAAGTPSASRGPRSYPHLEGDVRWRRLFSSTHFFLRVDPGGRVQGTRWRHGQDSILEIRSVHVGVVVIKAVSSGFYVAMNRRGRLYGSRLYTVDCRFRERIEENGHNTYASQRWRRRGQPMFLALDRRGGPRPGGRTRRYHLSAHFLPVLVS
Vif A3G – HIV-1 Vif–A3G interaction blockers – biochemical, TR-FRET, GST-Vif 1-94, biotin-A3G peptide, dose response retest, primary screen (AID 1117319). 260,000 tested, 0.57% active. inhibition, %; hits with a dose series show IC50 in µM. TR-FRET GST-Vif / biotin-A3G peptide binding; higher % means a stronger effect; test concentration not given here; strong numbers were not always called active;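 active = above the screen mean plus three standard deviations and confirmed in dose response; inconclusive = results disagree or hit not tested in dose response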;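 note: Vif residues 1-94 fused to GST binding biotinylated APOBEC3G peptide 110-148; 0% = full assay without inhibitor and 100% = GST in place of GST-Vif; retest series ran down from 100 µM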
Active calls of the source: *; i = inactive; ? = inconclusive; . = not tested or not shown; & = joins results of further samples. This is a subset (hit frequency here may not be typical).

Vif A3G	RanGTP-Imp inh	HNF4A DNA FP	E coli growth	AF4-AF9 inh	UCH37 inh	FGF22 binding	Structure
16%	0.8	-2.1	0.69	.	0.4	.	O=C(NCC1CCCO1)c1ccccn1 (stereo unspecified)
0%	1.0	2.2	0.67	0.8	1.2	i	Cc1cc(C)n(-c2ccc(NC(=O)C3CCCCN3C(=O)c3sccc3C)cc2)n1 (stereo unspecified)
-2%	1.0	-1.6	0.68	-35	i	i	COc1ccc2c(c1)CCc1cc(C(=O)O)sc1-2
-1%	.	-2.6	0.74	0.5	2.5	i	Cc1ccc(S(=O)(=O)N2CCC(C(=O)N3CCN(Cc4ccccc4)CC3)CC2)cc1
-5%	1.2	1.3	0.71	0.2	0.8	i	CCN(c1ccccc1)S(=O)(=O)c1ccc(OC)c(N=N/C(C(=O)Nc2ccccc2)=C(/C)O)c1
.	-1.4	0.6	0.71	0.5	2.6	i	COc1ccc(S(=O)(=O)N2CCC(C(=O)Nc3ccccc3N3CCCCC3)CC2)cc1OC
.	3.3	1.7	0.68	.	-1.4	.	Nc1nn(-c2ccccc2)nc1C(=O)OCc1ccccc1F
.	1.7	2.9	0.67	-3.1	3.7	i	Cc1ccc(OCC(=O)Oc2cccc(C)c2C)cc1
1%	2.8	-2.8	0.69	.	-0.8	.	CCC(C)[C@@H](NC(=O)OC(C)(C)C)c1nnc(S(=O)(=O)Cc2cccc(C)c2)o1 (stereo partly specified)
-2%	?	2.5	0.66	0.2	5.4	i	C=CCn1cnc2c(sc3nc(C)cc(C)c32)c1=O
.	.	0.5	0.69	10.0	-3.0	i	O=c1c2c3nc4ccccc4nc3n(CCN3CCOCC3)c2ncn1CCN1CCOCC1
?	?	0.0	0.64	.	0.6	.	CCOC(=O)C(NC(=O)CCl)(Nc1sc(C)c(CC)c1C#N)C(F)(F)F (stereo unspecified)
6%	5.1	0.2	0.71	1.3	1.2	i	O=C(O)CC1C(=O)NCCN1CCCc1ccccc1 (stereo unspecified)
5%	7.6	6.1	0.66	-1.4	1.7	i	O=C(CN1C(=O)NC2(CCCC2)C1=O)N1CCN(S(=O)(=O)c2ccccc2[N+](=O)[O-])CC1
-3%	6.5	-5.3	.	-2.2	.	i	CCc1ccc(NC(=O)Cn2cnc([N+](=O)[O-])c2)cc1

Among those listed so far, two contain a COOH group:
Vif A3G	RanGTP-Imp inh	HNF4A DNA FP	E coli growth	AF4-AF9 inh	UCH37 inh	FGF22 binding	Structure
-2%	1.0	-1.6	0.68	-35	i	i	COc1ccc2c(c1)CCc1cc(C(=O)O)sc1-2
6%	5.1	0.2	0.71	1.3	1.2	i	O=C(O)CC1C(=O)NCCN1CCCc1ccccc1 (stereo unspecified)

The list continues.
Vif A3G	RanGTP-Imp inh	HNF4A DNA FP	E coli growth	AF4-AF9 inh	UCH37 inh	FGF22 binding	Structure
.	0.9	-2.3	0.69	-0.2	1.4	i	O=C1NC2(CCCCC2)CO1
.	.	3.0	0.69	-5.5	-0.9	i	CCCn1c(SCC(=O)Nc2ccc(Cl)cn2)nnc1C1CC1
31%	?	.	.	0.4	.	i	O=C(N/N=C(\Cc1ncc[nH]1)c1ccccc1)c1ccccc1
52%	1.4	-5.0	0.63	.	4.0	.	CCCCN(CCCC)S(=O)(=O)c1ccc(NC(=O)c2cccs2)cc1
.	?	0.1	0.7	0.5	1.7	i	CN(Cc1ccco1)S(=O)(=O)c1cc(F)ccc1CN1C(=O)c2cccnc2C1=O
.	2.5	-1.9	0.77	-2.1	-111	i	Cc1oc2c(c(C)cc3oc(=O)c(CC(=O)NCCCN4CCCC4=O)c(C)c32)c1C
.	-0.9	-6.1	0.62	-1.4	3.4	i	O=C(CSc1nc2ccccc2c(=O)[nH]1)Nc1ccccc1O
-5%	1.1	-0.7	0.66	-1.4	3.9	i	CCCCN(C(=O)c1ccc(OC)c([N+](=O)[O-])c1)c1c(N)n(CCC)c(=O)[nH]c1=O
0%	0.4	0.6	0.68	-6.4	3.6	i	COc1ccc(NC(=O)Cn2c(=O)n(CC3CCCO3)c(=O)c3ccccc32)c(OC)c1 (stereo unspecified)
-6%	4.9	-1.0	0.71	-0.9	-1.1	.	O=C(CSc1nnc(NC(=O)Cc2ccccc2)s1)NCC1CCCO1 (stereo unspecified)
-8%	2.5	3.4	0.67	-3.3	2.5	i	CCC(C)(C)NC(=O)C(C(C)C)N(CC1CCCO1)C(=O)CNS(=O)(=O)c1ccccc1 (stereo unspecified)
12%	1.3	0.0	0.66	.	-326	.	COC(=O)c1cc(Cl)c(NC(=O)/C=C/c2ccc(OC)c(OC)c2)cc1OC
8%	.	3.4	0.71	-0.5	-47	i	COc1ccc(N(C(=O)c2ccncc2)S(=O)(=O)c2ccc3c4c(cccc24)C(=O)N3C)cc1
.	.	1.6	.	1.6	1.5	i	CCOC(=O)[C@H]1[C@H]2COc3ccc(Cl)cc3[C@@H]2N2C(=O)c3ccc(C)cc3NC(=O)[C@@]12C
12%	-1.5	2.0	0.66	.	3.8	.	O=C1CSC(=S)N1c1cccnc1
-4%	2.0	0.7	0.67	4.8	2.6	i	Cc1ccc(CN2CCC(NC(=O)c3ccccc3)CC2)cc1
?	2.8	-1.7	0.81	.	0.0	.	O=S(=O)(c1ccccc1)N(CC(O)Cn1c2ccccc2c2ccccc21)c1ccccc1 (stereo unspecified)
.	97*	-2.3	.	-0.4	.	i	C/C(=N\NC(=O)c1nnn(-c2nonc2N)c1C(C)C)c1cc(C)sc1C
.	2.5	0.6	0.67	-6.8	6.9	i	O=C1CCC(=O)N1c1ccc(S(=O)(=O)Nc2ccc(Br)cc2)cc1
.	.	5.1	.	2.4	.	i	O=C(Nc1ccc(C(=O)N2CCN(c3ccncc3)CC2)cc1)c1ccc(Br)o1
.	2.9	4.8	0.69	2.7	-3.0	i	CCN(C(=O)/C=C/c1cc(OC)c(OC)c(OC)c1)C1CCCCC1
19µM*	.	4.5	0.62	2.7	2.1	i	Cc1cc(C)c2c(c1)[C@@H]1C=CC[C@@H]1[C@H](c1ccc(S(=O)(=O)N3CCOCC3)cc1)N2
0%	?	-2.9	0.69	.	2.4	.	COCCn1nnnc1C(C(C)C)N1CCOCC1 (stereo unspecified)
3%	1.5	1.9	0.65	-2.5	0.9	i	CSc1ncc(-c2ccccc2)cn1
?	?	-1.5	0.73	.	2.0	.	CCn1c(SCC(=O)c2cc(C)n(CC3CCCO3)c2C)nc2ccccc21 (stereo unspecified)
1%	1.4	-7.9	0.65	4.3	9.6	i	C=CCOc1ccc(C2/C(=C(\O)c3ccc4c(c3)OCCO4)C(=O)C(=O)N2CCCN2CCOCC2)cc1 (stereo unspecified)
3%	0.7	-1.4	0.67	-1.0	3.6	i	CC(C)Oc1cccc(C(=O)C2CCCN(C(=O)c3csnn3)C2)c1 (stereo unspecified)
3%	1.3	1.2	0.68	2.2	2.8	i	Cn1c(=O)c2c(ncn2CC(=O)N2CCN(S(=O)(=O)c3ccc(Cl)cc3)CC2)n(C)c1=O
-2%	-0.4	-1.7	0.76	.	3.0	.	O=C1N(CN2C(=O)C3(OCCO3)c3ccccc32)c2ccccc2C12OCCO2
?	3.5	-1.1	0.68	-38	1.0	i	CN(C)S(=O)(=O)N(CC(=O)NCc1ccccc1)c1ccccc1

3 of the entries above in order of the HNF4A DNA FP value, rising.
Molecule	HNF4A DNA FP
O=C(NCC1CCCO1)c1ccccn1 (stereo unspecified)	-2.1
O=C1CCC(=O)N1c1ccc(S(=O)(=O)Nc2ccc(Br)cc2)cc1	0.6
CSc1ncc(-c2ccccc2)cn1	1.9

Profiles from above. Screens in order: Vif A3G, RanGTP-Imp inh, HNF4A DNA FP, E coli growth, AF4-AF9 inh, UCH37 inh, FGF22 binding
O=C(CSc1nnc(NC(=O)Cc2ccccc2)s1)NCC1CCCO1 (stereo unspecified) across the screens: -6%, 4.9, -1.0, 0.71, -0.9, -1.1, .
C=CCOc1ccc(C2/C(=C(\O)c3ccc4c(c3)OCCO4)C(=O)C(=O)N2CCCN2CCOCC2)cc1 (stereo unspecified) across the screens: 1%, 1.4, -7.9, 0.65, 4.3, 9.6, i

The list goes on:
Vif A3G	RanGTP-Imp inh	HNF4A DNA FP	E coli growth	AF4-AF9 inh	UCH37 inh	FGF22 binding	Structure
5%	0.3	2.1	0.69	-1.1	-0.2	i	O=C(Nc1nc(-c2ccc(Br)cc2)cs1)c1cccnc1
-4%	.	0.0	.	1.2	.	i	Cc1cc(C)c(N2C(=O)CC(Sc3ccccc3N)C2=O)c(C)c1 (stereo unspecified)
1%	0.2	-1.0	0.64	-11	3.3	i	CCOc1ccc(C(=O)C(C)OC(=O)CN2C(=O)NC(C)(C)C2=O)cc1 (stereo unspecified)
.	.	2.7	0.65	-0.9	14	i	Oc1cc(NCc2ccc(Cl)cc2)cc2cccnc12
-2%	6.1	-3.9	0.69	.	2.2	.	COc1ccc(N(CC(=O)Nc2cccc(SC)c2)S(C)(=O)=O)cc1Cl
.	-1.7	2.1	0.69	-3.0	1.2	.	COC(=O)CCC(=O)Nc1ccc(S(=O)(=O)N2CCc3ccccc32)cc1
-1%	-4.3	0.8	0.68	1.0	5.5	.	CN(C)CCn1c2c(c(SCC(=O)Nc3nccs3)nc1=O)CCCC2
20%	0.8	3.2	0.67	.	5.9	.	O=C(CSc1nc(O)cc(=O)[nH]1)N1CCCc2ccccc21
-12%	0.8	2.2	0.64	-0.5	0.8	i	CN1CC(=O)N(CC(=O)Nc2cccc(S(=O)(=O)N3CCOCC3)c2)C1=O
.	-1.5	4.7	.	7.0	4.2	i	CN1C[C@@H]2C(c3ccc(Cl)nc3)C3(c4ccccc4)CC2(C3)[C@H]1c1ccccc1 (stereo partly specified)
.	0.3	-3.6	0.71	-2.7	5.4	i	O=C(CSc1nnc(COc2ccc(Br)cc2)o1)NC1CCCCC1
1%	2.8	3.4	0.73	1.4	0.8	i	COc1ccccc1S(=O)Cc1ccc(C(=O)NC2CCCC2)o1 (stereo unspecified)
-4%	.	5.8	0.72	0.1	2.1	i	CC(=O)Nc1ccc(S(=O)(=O)N2CCSc3ccccc32)cc1
-1%	.	-5.8	.	-2.2&-0.9	.	i	C[C@@H]1CN([C@H](C)CO)C(=O)CCCn2nncc2CO[C@@H]1CN(C)C(=O)C1CCCCC1
-2%	-1.4	-5.2	0.71	-0.2	1.8	.	CCCCNC(=S)N1CCN(C)CC1
-7%	-5.4	2.3	0.81	.	2.6	.	COC(=O)CCCC(=O)N1CCOCCN(C(=O)CCCC(=O)OC)CCOCC1
4%	-2.9	1.8	0.67	.	5.0	.	O=S(=O)(c1ccccc1)N1CCC(N2CCCCCC2)CC1
-6%	0.5	-1.6	0.67	2.8	6.4	i	CC(C)OP(=O)(OC(C)C)C(Nc1ccccc1)c1cccc([N+](=O)[O-])c1 (stereo unspecified)
.	-4.0	1.2	0.71	3.0	2.4	i	CC(C)CC(C(=O)Nc1cccc(O)c1)N1C(=O)c2ccccc2C1=O (stereo unspecified)
.	.	3.4	0.71	-1.2	-1.2	i	COc1ccccc1CNC(=O)COC(=O)c1cc(C)nc2ccccc12
-1%	-5.9	-15	0.72	11	-12	i	O=C1c2cccc3c([N+](=O)[O-])ccc(c23)C(=O)N1CC1CCCO1 (stereo unspecified)
.	-6.7	7.1	.	1.3	.	i	COc1ccc(/C=N/n2cnc3c([nH]c4ccc(F)cc43)c2=O)cc1CN1CCCC1
3%	2.8	1.0	0.67	0.9	-0.7	i	COc1ccc(NC(=O)c2cn(-c3ccccc3)nc2-c2ccncc2)cc1
4%	-5.1	-2.4	0.7	-5.6	4.6	i	O=C(COC(=O)c1oc2ccccc2c1COc1ccccc1)NCCN1C(=O)CSC1=O

Bioassay records (PubChem BioAssay)
